RecA intein inh – Mtb RecA intein splicing inhibition | P9WHJ3 | cell-free RecA intein splicing, fluorescence | inhibition, %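 (about 9 µM by stock and volumes)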 | 290,000 tested, 0.75% active | AID 2221; in the data active = inhibition above about 30%;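 note: 0% = vehicle wells and 100% = reference inhibitor control wells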
Target sequence (P9WHJ3 whole entry, looked up): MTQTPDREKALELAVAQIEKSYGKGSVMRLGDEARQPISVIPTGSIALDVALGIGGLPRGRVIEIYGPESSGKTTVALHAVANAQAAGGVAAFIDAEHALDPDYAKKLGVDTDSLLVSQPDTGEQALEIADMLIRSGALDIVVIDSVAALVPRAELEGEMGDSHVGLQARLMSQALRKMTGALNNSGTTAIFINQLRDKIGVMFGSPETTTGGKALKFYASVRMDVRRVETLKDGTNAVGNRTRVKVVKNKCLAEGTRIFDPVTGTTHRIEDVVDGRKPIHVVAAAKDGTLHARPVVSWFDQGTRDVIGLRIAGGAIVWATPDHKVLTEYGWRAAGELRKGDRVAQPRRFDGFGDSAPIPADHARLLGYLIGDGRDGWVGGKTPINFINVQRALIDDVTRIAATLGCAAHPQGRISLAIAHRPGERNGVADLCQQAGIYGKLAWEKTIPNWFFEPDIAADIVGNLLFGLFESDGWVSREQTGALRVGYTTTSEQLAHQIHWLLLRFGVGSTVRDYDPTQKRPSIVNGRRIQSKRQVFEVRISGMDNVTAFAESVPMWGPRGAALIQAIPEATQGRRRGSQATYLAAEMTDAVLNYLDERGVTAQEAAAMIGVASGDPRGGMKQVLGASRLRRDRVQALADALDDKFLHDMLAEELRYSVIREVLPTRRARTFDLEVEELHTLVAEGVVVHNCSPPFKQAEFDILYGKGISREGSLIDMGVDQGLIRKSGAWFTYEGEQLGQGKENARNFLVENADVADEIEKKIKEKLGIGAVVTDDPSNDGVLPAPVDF
YopH inh – inhibitors of Yersinia enterocolitica YopH tyrosine phosphatase | fluorescence Ex485/Em525 | inhibition, %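 (about 10 µM by stock and volumes)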 | 140,000 tested, 0.16% active | AID 898;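 active = inhibition of 50% or more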;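 note: controls were vehicle for no effect and minimum signal wells for full effect; inactives centre near -20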
Mtb growth – M. tuberculosis H37Rv growth inhibitors, H37Rv strain (AID 1626). M. tuberculosis H37Rv growth inhibition; higher % means a stronger effect. inhibition, % at 10 µM, or IC50 in µM where a hit was titrated. 220,000 tested, 0.95% active;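 active = confirmed in a dose series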;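 note: bacteria incubated seven days before Alamar blue readout; 0% = bacteria only wells and 100% = bacteria with antibiotic wells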
Mtb betalactam – beta-lactam sensitization of Mtb H37Rv; M. tuberculosis H37Rv growth with meropenem, percent inhibition; hits of this screen are not shown here; inhibition, % at 25 µM; 330,000 tested, 0.27% active;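 active = about 74% or more and at least 40 points above the plate without the antibiotic, then above 30% in a dose series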;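 note: growth measured after seven days incubation then overnight dye step; 0% = bacteria only wells and 100% = bacteria with antibiotic; twin plates without the antibiotic show which effects depend on it; some results filed as inactive read as strong as hits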
Arbovirus inh – blocks arbovirus infection; arbovirus infection cell-based antiviral screen; inhibition, % at 10 µM; 200,000 tested, 0.37% active;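 active = inhibition from about 30%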;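 note: bluetongue infection of BSR cells; cell survival read as ATP light after 72 h; 0% = infected wells without compound and 100% = uninfected wells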
Arbovirus inh repeat – recorded beside Arbovirus inh, whose call it bears; inhibition, %; measured here: 10K subset replicate screen; many hits read low in the repeat;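 first of two repeat runs on a subset; 0% = infected and 100% = uninfected wells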
* hit, by the source's call; nt = no result given. Some of the compounds tested; rates above refer to the full screens.

SMILES	RecA intein inh	YopH inh	Mtb growth	Mtb betalactam	Arbovirus inh	others
Nn1c(SC/C=C/c2ccccc2)nnc1-c1ccncc1	0.7	-11	nt	4	3
CCN(CC)c1ccc(/C=C2/C(=O)c3ccc(C(=O)O)cc3C2=O)cc1	nt	-37	-6%	5	0
NNC(=O)c1cccc(COCC(F)(F)C(F)F)c1	2.0	nt	-3%	1	nt
NC(=O)c1ccccc1Nc1nc(NCCO)nc(N2CCCC2)n1	-0.6	nt	-12%	-2	nt
NNC(=O)CN1CCN(c2ncc(C(F)(F)F)cc2Cl)CC1	-1.7	nt	-3%	-3	2
CC1=Nc2ccccc2N=C(NC(=O)c2ccccc2)C1c1ccc(Cl)cc1 (stereo not given)	7.5	nt	4%	1	-7
COCC(=O)Nc1ccccc1C#N	-1.2	5	nt	86	-1
CCN(CC)C(=O)CSc1nnc([C@@H](N)Cc2ccccc2)o1	0.7	nt	-7%	-9	8
COc1ccccc1Sc1nc(-c2ccccn2)ncc1OC	5.5	nt	1µM*	76	-31
O=C(Nc1ccc(F)c(F)c1)c1cc(S(=O)(=O)N2CCN(c3ccccn3)CC2)ccc1F	-0.3	-23	-11%	7	5
CN1CCN(C2Cc3ccccc3Sc3cc(C(F)(F)F)ccc32)CC1 (stereo not given)	6.1	nt	nt	99	nt
CC(=O)N1N=C(c2c(O)n(C)c(=O)n(C)c2=O)CC1c1ccccc1 (stereo not given)	5.3	nt	3%	29	nt
COc1ccc2cc(-c3[nH]ncc3CNCCn3nc(C)cc3C)ccc2c1	-2.4	nt	10%	1	4
CCCCCCCCCCCC(=O)c1c(O)cccc1O	nt	nt	-1%	-5	-27	Arbovirus inh repeat=-20
O=C(O)c1ccc2c(c1)OCCOCCOCCOCCOCCO2	2.8	nt	nt	-4	nt
O=C(Nc1cccnc1)c1ccc2c(c1)C(=O)N(Cc1cccnc1)C2=O	7.1	-11	-6%	-1	6
CC(OC(=O)Cc1c(F)cccc1Cl)C(=O)NC1(C#N)CCCCC1 (stereo not given)	-0.1	nt	nt	-16	nt
CCN(CC)CCN(C)c1ccc(N2C(=O)C3CC=CCC3C2=O)cc1[N+](=O)[O-] (stereo not given)	0.0	nt	-1%	-15	-6
Cc1ccccc1-n1cc(CNCc2c(C(=O)N(C)C)nc3ccc(Cl)cn23)cn1	0.2	nt	-6%	-1	0
O=C(NCc1cccnc1)C(=O)NC1CCCCC1	-1.9	nt	-1%	-6	1
Cc1c(C(=O)O)oc2c1C(O)CCC2 (stereo not given)	-3.4	-39	-6%	-3	13
CCOc1ccc(CN2CCCC(C(=O)c3ccccc3OC)C2)cc1 (stereo not given)	1.1	nt	nt	9	nt
O=C(N/N=C/c1sc(N2CCOCC2)nc1-c1ccccc1)c1ccccc1Cl	7.4	nt	4%	-5	-4
Cc1ccc(C2CC(C(F)(F)F)n3nc(C(=O)NCc4ccco4)cc3N2)cc1 (stereo not given)	-2.3	-48	0.92µM*	99	2
O=C(O)C1CCCCC1C(=O)Nc1ccc2c(c1)OCO2 (stereo not given)	0.0	nt	nt	-3	nt
New compounds follow.
SMILES	RecA intein inh	YopH inh	Mtb growth	Mtb betalactam	Arbovirus inh	others
N/C(=N\OC(=O)c1ccc(Cl)cc1)c1ccn[nH]1	-0.6	nt	nt	-11	nt
CCOC(=O)c1sc(Nc2nc(C)cc(C)n2)nc1C	-0.1	nt	5%	72	nt
CC(=O)c1ccc(N2CCN(CC(O)c3ccccc3)CC2)cc1 (stereo not given)	1.4	nt	nt	0	nt
O=C(Cn1c(=O)oc2cc(S(=O)(=O)N3CCCCCC3)ccc21)NC1CCCCCCC1	-1.2	-19	4%	0	-5	Arbovirus inh repeat=-4
COc1ccc(NC(=O)CCS(=O)(=O)c2ccccc2Cl)cc1S(=O)(=O)Nc1ccc(Cl)cc1	9.3	nt	4%	3	3
CNC(=O)Oc1cccc2ccccc12	-0.2	nt	4%	0	nt
CCOc1ccc(NC(=O)CN(C)C(=O)c2cc(S(=O)(=O)N(C)C)ccc2N2CCCC2)cc1OCC	-2.2	nt	nt	-3	nt
CCCCCN(C(=O)CCC(=O)OCC(=O)c1ccc(F)c(F)c1)c1c(N)n(CCCC)c(=O)[nH]c1=O	0.2	nt	nt	-8	nt
COc1ccc(CNCC(O)(c2ccccc2)c2ccc(F)cc2)cc1 (stereo not given)	-0.8	nt	nt	1	nt
Cc1ccc(NC(=S)NC(NC(=O)c2ccccc2)C(Cl)(Cl)Cl)c(C)c1 (stereo not given)	5.0	-24	2%	8	-17
Cc1cccc(CSc2nnc(C)c(=O)n2N)c1	1.1	6	5%	nt	-5
Cc1nn(CC(=O)Nc2cccc(C(F)(F)F)c2)c(=O)c2cccn12	1.6	nt	nt	-6	nt
CCOc1ccc(NC(=O)CN(Cc2ccccc2)S(C)(=O)=O)cc1	3.0	-16	-4%	-7	-1
O=c1[nH]c(=O)n(Cc2ccco2)c(O)c1/C=N/N1CCCCC1	2.4	-24	-4%	4	3
Cc1ccc(CNC(=S)N2CCOCC2)cc1	-3.9	nt	-5%	-4	-1
Cc1ccc(-c2[nH]c(=S)[nH]c(=O)c2C#N)cc1	0.7	nt	-13%	4	2
O=C(NCCc1ccccc1)C1CCN(S(=O)(=O)N2CCC3(CC2)OCCO3)CC1	-0.1	4	2%	5	5
C/C(=N\NC(=O)CNc1cccc(Cl)c1C)C1CC1	1.3	nt	-1%	4	-1
CC1CCC(NC(=O)Cn2c(=O)oc3ccccc32)CC1 (stereo not given)	0.9	nt	nt	-16	nt
O=C(N/N=C/c1ccc(Br)o1)c1cccnc1	-4.6	-5	0%	-3	-3
OCCC1CN(Cc2cccc3c2OCO3)CCN1Cc1ccccc1 (stereo not given)	-0.1	nt	2%	-5	2
CN(C)CCCN(C(=O)c1cc(-c2cccs2)nc2ccccc12)c1nc2ccc(F)cc2s1	7.9	nt	nt	100	nt
O=C1CSC(c2ccccn2)N1Cc1cn2ccccc2n1 (stereo not given)	nt	4	-6%	-1	-3
CS(=O)(=O)c1ccc2nc(NC(=O)c3ccc(N4CCCC4=O)cc3)sc2c1	-0.1	nt	-6%	-1	nt
COC(=O)C1C(O)=C(C=NC2CCCCC2)C(=O)CC1(C)C (stereo not given)	-1.3	-42	-1%	-2	2

6 entries picked at random from those above, as already listed:
SMILES	RecA intein inh	YopH inh	Mtb growth	Mtb betalactam	Arbovirus inh	others
C/C(=N\NC(=O)CNc1cccc(Cl)c1C)C1CC1	1.3	nt	-1%	4	-1
Cc1ccc(NC(=S)NC(NC(=O)c2ccccc2)C(Cl)(Cl)Cl)c(C)c1 (stereo not given)	5.0	-24	2%	8	-17
Cc1nn(CC(=O)Nc2cccc(C(F)(F)F)c2)c(=O)c2cccn12	1.6	nt	nt	-6	nt
OCCC1CN(Cc2cccc3c2OCO3)CCN1Cc1ccccc1 (stereo not given)	-0.1	nt	2%	-5	2
O=C(NCCc1ccccc1)C1CCN(S(=O)(=O)N2CCC3(CC2)OCCO3)CC1	-0.1	4	2%	5	5
O=c1[nH]c(=O)n(Cc2ccco2)c(O)c1/C=N/N1CCCCC1	2.4	-24	-4%	4	3

(more compounds)
SMILES	RecA intein inh	YopH inh	Mtb growth	Mtb betalactam	Arbovirus inh	others
CCN=C1NN=C(c2cc(C)n(CCc3ccccc3)c2C)CS1	nt	nt	9%	nt	1
Cc1ccc(-c2ccc(C)c(N)c2C)c(C)c1N	0.3	nt	-5%	-3	-1
CCN(CC)C(=O)c1ccc(-c2nnc(Nc3cccc(O)c3)c3ccccc23)cc1	4.1	nt	nt	1	nt
COCCN1C(=O)N[C@@H](c2cccc(C(F)(F)F)c2)[C@H](C(C)=O)[C@H]1C	-1.3	nt	-6%	-6	nt
COC(C[C@H](O)C[C@H](O)[C@H](C)OCc1ccccc1)OC	nt	nt	-9%	-2	nt
Cc1nnc(SCC(=O)Nc2nc(-c3ccc(F)cc3)cs2)[nH]c1=O	-1.3	nt	85%	1	17
Cc1ccc(C[n+]2cc(-c3ccc(Cl)cc3)n3c2CCC3)cc1	-0.1	nt	3%	0	nt
O=c1cc(-c2ccc(O)cc2)oc2cc(O)cc(O)c12	-0.9	nt	-8%	-9	nt
Cc1cc(NC(=O)CSc2nc3ccsc3c(=O)n2NC(=O)c2ccccc2)no1	nt	-32	3%	-3	11
CCOC(=O)C1(C)C=C(Nc2ccc(C)cc2)C(=O)N1c1ccc(C)cc1 (stereo not given)	-3.7	nt	2%	-2	1
CC1CCCCN1S(=O)(=O)c1ccc2c(c1)CCN2C(=O)C1CCC1 (stereo not given)	0.5	-26	nt	-2	-6
CCc1ccc(C(=O)COC(=O)c2ccc(Cl)nc2)cc1	0.4	nt	67%	36	6
O=C(NCCCN1CCOCC1)c1ccc(Cl)c([N+](=O)[O-])c1	-0.9	nt	nt	3	nt
O=C(NCC(=O)N1CCOCC1)c1ccc(Br)o1	-7.2	nt	nt	-10	nt
Nc1ccc(N2CCN(CCCCN3C(=O)C4CCCN4C3=O)CC2)cc1 (stereo not given)	-6.0	28	-8%	-8	-26
CCOC(=O)Cc1csc(NC(=O)/C=C/c2ccco2)n1	0.3	nt	13%	-8	nt
Cc1c(C(=O)OCC(=O)N2CC(C)CC(C)C2)oc2ccccc12 (stereo not given)	1.2	nt	nt	2	nt
C/C(=N\NC(=O)Cc1cccn1C)c1ccco1	2.0	nt	3%	-10	nt
CCN(CC)C(=O)C1CCN(Cc2ccc(OCc3ccccc3)cc2)CC1	-0.2	nt	nt	-5	nt
Cc1ccc(-c2nc(C=Nc3ccccc3)c(O)o2)cc1	-2.0	nt	10%	6	-10
O=C(/C=C/c1ccc(F)cc1)Nc1ccc(S(=O)(=O)N2CCOCC2)cc1	2.1	nt	nt	-7	nt
Cc1ccc(SC(C)c2nc(-c3ccncc3)no2)cc1 (stereo not given)	3.6	-36	4%	2	8
CN(C(=O)CC1C(=O)NCCN1Cc1ccccc1F)C1CCOCC1 (stereo not given)	0.8	nt	nt	-1	nt
NC(=O)c1nsc(C(=O)N(c2cccc(O)c2)C(C(=O)NC2CCCC2)c2ccc(Cl)cc2)c1N (stereo not given)	5.2	nt	nt	13	nt
Cc1ccc(NCc2nnc(SCC(=O)c3ccccc3)o2)c(C)c1	0.9	-15	-1%	4	-2
Next section
SMILES	RecA intein inh	YopH inh	Mtb growth	Mtb betalactam	Arbovirus inh	others
CNc1c(NC(=O)COc2ccc(Cl)cc2)c(=O)oc2ccccc12	0.0	nt	nt	-10	nt
COc1ccc(CCN2C(=NC(=O)CCC(=O)O)SC3CS(=O)(=O)CC32)cc1OC (stereo not given)	1.5	-17	-2%	-7	11
CCOC(=O)c1[nH]c(COC(=O)CCOc2ccccc2OC)c(C(=O)OCC)c1C	-4.2	-40	2%	9	16
CCOC(=O)C1CCCN(CC(=O)c2c[nH]c3ccc(C)cc23)C1 (stereo not given)	nt	nt	-17%	-12	nt
CCOC(=O)C1=C(C)NC(=O)NC1c1ccc(N2CCC(c3ccccc3)=N2)cc1 (stereo not given)	-6.5	nt	21%	11	-8
COC(=O)c1[nH]c(C)c(/C(O)=C2\C(=O)C(=O)N(CCN3CCOCC3)C2c2ccc(C)o2)c1C (stereo not given)	-1.1	nt	-5%	10	nt
CC1(C)Cc2ccccc2-c2c1c(=O)n(Cc1ccccc1)c1nnnn21	0.4	10	-10%	-5	-8
COc1ccccc1N1CCN(c2cc(=O)n(-c3ccccc3Cl)c(=O)[nH]2)CC1	8.7	-54	-3%	7	-7
CS(=O)(=O)N(Cc1ccc(C(=O)NN=C2CCCCCC2)cc1)c1ccccc1	-1.1	-32	-11%	3	4
CN(C)c1nnnn1-c1ccc(OC(F)(F)F)cc1	-2.4	nt	nt	4	0
O=S1(=O)CC2N=C(N(Cc3ccc(F)cc3Cl)c3ccccc3F)SC2C1 (stereo not given)	0.2	-29	6%	12	1
CCOc1ccc(OCC(=O)N2CCOCC2)cc1	0.8	-28	-6%	2	-1
COc1ccc(Cc2nnc(NC(=O)c3c(-c4ccccc4)noc3C)s2)cc1	6.3	-13	18%	52	0	Arbovirus inh repeat=-7
CCCCC(c1nnnn1Cc1ccco1)N1CCN(C(=O)c2ccco2)CC1 (stereo not given)	2.2	-42	nt	-1	11

Gathered by group, those above with a nitro group on carbon
SMILES	RecA intein inh	YopH inh	Mtb growth	Mtb betalactam	Arbovirus inh	others
CCN(CC)CCN(C)c1ccc(N2C(=O)C3CC=CCC3C2=O)cc1[N+](=O)[O-] (stereo not given)	0.0	nt	-1%	-15	-6
O=C(NCCCN1CCOCC1)c1ccc(Cl)c([N+](=O)[O-])c1	-0.9	nt	nt	3	nt

Assay outcomes as filed in PubChem BioAssay.
